Bioassay records: PubChem, National Center for Advancing Translational Sciences (NCATS)
MARV entry inh – blocks Marburg virus binding to or entry into cells | Marburg virus pseudotyped entry inhibition, cell reporter; control for the full effect not named in the record; about a third of the inactives were read at about 46 µM | Potency, µM (top dose mostly 37.8 µM), without a hit: top-dose activity change, negative = inhibition, most hits filed as inhibitors | actives 1.8% (n = 300,000); active = well fitted inhibition curve with a large enough effect; inconclusive = small, poorly fitted or top-dose-only effect, or effect the other way; inactive = flat fitted curve, though single readings scatter; tested in HEK293 cells; about a fifth of its hits are not listed in these tables; also: % is scaled to controls: 0 for no effect and ±100 for the full control effect; luciferase read-out
RE007 growth inh – less growth of the S. pombe RE007 Vpr strain; S. pombe RE007 Vpr strain, BacTiter-Glo ATP luminescence, 24 h; control for the full effect not named in the record; Potency, µM (titrated, usually from 92.2 µM), for inactives: at the top dose activity change, negative = less growth; actives 0.21% (n = 360,000); active = well fitted falling curve with a large enough effect; inconclusive = small, poorly fitted or top-dose-only effect; inactive = no such curve, though single readings can be large or run the other way;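 also: % is scaled to controls: 0 for no effect and ±100 for the full control effect; nearly all actives have a fitted effect of over 50% in size; the assay follows cell death caused by Vpr and the record does not say whether a fall means rescue or toxicity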
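Fission yeast strain RE007, carrying one chromosomally integrated HIV-1 vpr copy, was seeded at OD 0.01 in PMG+AL medium with 23 nL pinned compound. After 24 h at 30 °C and 99% humidity, viability was read by BacTiter-Glo luminescence.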
SARS PLpro yeast – inhibitors of SARS-CoV papain-like protease in yeast; S. cerevisiae expressing SARS-CoV PLpro, growth rescue; control for the full effect not named in the record; Potency, µM (top dose mostly 32.9 µM), for inactives: at the highest dose activity, positive = growth rescue; actives 0.19% (n = 330,000); AID 485353; also: 0% is about no effect; nearly all actives have a fitted effect of over 55% in size; growth read by luminescence after 48 h
Lassa entry inh – inhibitors of Lassa virus binding or cell entry; Lassa virus pseudotype entry inhibition, cell reporter; control for the full effect not named in the record; Potency, µM (highest dose often 37.9 µM), for inactives: at the highest dose activity change, negative = inhibition, hits mostly inhibitors; actives 1.2% (n = 300,000); AID 540256; active means well fitted inhibition curve with a large enough effect; inconclusive means small, poorly fitted or top-dose-only effect, or effect the other way; inactive means flat fitted curve, though single readings scatter; tested in HEK293 cells; also: % is scaled to controls: 0 for no effect and ±100 for the full control effect; nearly all actives have a fitted effect of over 50% in size; luciferase read-out
Cruzain Triton – blocks cruzain activity in presence of Triton detergent. P25779. purified cruzain, Z-FR-AMC fluorescence, 0.01% Triton. Potency, µM, inactives show max response, negative = inhibition, actives largely listed as inhibitors. actives 0.43% (n = 200,000). AID 1478; active = well fitted curve in the direction sought with a large enough effect; inconclusive = small, poorly fitted or top-dose-only effect, or another doubt; inactive = no such curve, though single readings can be large; an effect the other way counts as inactive or inconclusive;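 also: plate controls were neutral wells for no effect and buffer without enzyme for full effect; nearly all actives have a fitted effect of over 40% in size; top concentration of the series not given in the record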
Target sequence (P25779 123-467 limits assumed): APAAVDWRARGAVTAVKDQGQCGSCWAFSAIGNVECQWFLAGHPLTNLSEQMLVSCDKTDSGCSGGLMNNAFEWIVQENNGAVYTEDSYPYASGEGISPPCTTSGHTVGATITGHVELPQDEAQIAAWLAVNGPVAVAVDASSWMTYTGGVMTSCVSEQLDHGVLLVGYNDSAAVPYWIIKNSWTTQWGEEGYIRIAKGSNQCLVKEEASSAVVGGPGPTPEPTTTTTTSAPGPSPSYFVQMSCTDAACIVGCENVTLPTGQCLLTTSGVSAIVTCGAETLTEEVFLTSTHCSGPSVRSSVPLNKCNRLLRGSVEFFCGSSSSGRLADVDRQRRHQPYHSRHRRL
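Detergent-containing run (0.01% Triton X-100) in acetate buffer pH 5.5 with 5 mM DTT: enzyme at 1.5 nM final, 15 min compound preincubation at room temperature, then 2 uM Z-FR-AMC substrate. Activity taken as 60 s fluorescence increase at 360/450 nm.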
NS1 function inh – inhibitors of influenza NS1 protein function | AID 2326 | Potency, µM (doses to about 46.1 µM), for the others: at the top dose activity, positive = more growth | actives 0.4% (n = 270,000) | S. cerevisiae slowed by influenza A NS1, growth recovery by OD600; also: actives are rising curves; nearly all actives have a fitted effect of over 50% in size
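Compounds were scored for reversing the slow growth caused by influenza A NS1 in S. cerevisiae, measured by optical density at 600 nm. Assay medium contained 2% galactose at pH 6.0; NS1-free yeast of the same strain were the positive control.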
Cruzain noTriton – blocks cruzain activity in detergent-free assay. P25779. purified cruzain, Z-FR-AMC fluorescence, no detergent. Potency, µM, for the others: max response, negative = inhibition, actives largely listed as inhibitors. actives 2.3% (n = 200,000); active = well fitted curve in the direction sought with a large enough effect; inconclusive = small, poorly fitted or top-dose-only effect, or another doubt; inactive = no such curve, though single readings can be large; an effect the other way counts as inactive or inconclusive;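 also: plate controls were enzyme without inhibitor for no effect and buffer without enzyme for full effect; nearly all actives have a fitted effect of over 40% in size; top concentration of the series not given in the record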
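Detergent-free condition (0.00005% Triton X-100) in acetate buffer pH 5.5 with DTT. 1.5 nM enzyme and compound were pre-mixed 15 min, then 2 uM Z-FR-AMC substrate added; reaction progress from fluorescence change between first and third reads (60 s).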
2A StopGo – lowers the luciferase signal of an FMDV 2A StopGo reporter; AID 1159524; actives 1.2% (n = 410,000); Potency, µM (top dose mostly 57.9 µM), inactives show at the highest dose signal change, negative = less light; human cells with a luciferase reporter of 2A StopGo recoding; control for the full effect not named in the record; active = well fitted falling curve with a large enough effect; inconclusive = small, poorly fitted or top-dose-only effect; inactive = no such curve, though single readings can be large or run the other way; tested in HEK293T cells; also: % is scaled to controls: 0 for no effect and ±100 for the full control effect; nearly all actives have a fitted effect of over 45% in size; luciferase light after 4 h
* hit, by the source's call; ? = inconclusive; . = no result given; & = joins results of further samples; [ ] = another dose, or the depositor's remark. Unless noted, calls follow the shape of the dose curve; as a rule, active means well fitted rising curve with a large enough effect; inconclusive means small, poorly fitted or top-dose-only effect; inactive means no such curve, though single readings can be large or run the other way. Potency is read from the fitted curve at half-maximal effect.

smiles	SARS PLpro yeast	Lassa entry inh	2A StopGo	RE007 growth inh	Cruzain noTriton	MARV entry inh	NS1 function inh	Cruzain Triton
CC1CCCCC1NC(=O)C1CCCN(S(=O)(=O)c2ccc(-n3cnnn3)cc2)C1 (stereo not drawn)	4%	8%	-20%	-21%	.	?	10%	.
CCCN1C(=O)/C(=C2\SC(=S)N(c3c(C)n(C)n(-c4ccccc4)c3=O)C2=O)c2ccccc21	0%	-2%	-21%	4%	.	-9%[14.2 µM]	-1%	.
COc1ccc(CN=C2NC(=O)CC(C(=O)Nc3ccc([N+](=O)[O-])cc3C)S2)cc1 (stereo not drawn)	9%	10%	0%	7%	-7%	28%[46.1 µM]	8%	-2.8%
C=CCOc1ccc(C2C3=C(CCCC3=O)N(CC(=O)O)C3=C2C(=O)CCC3)cc1OCC	2%	?	-5%	-10%	.	?	16%	.
COc1ccc(C2C(C(C)=O)=C(O)C(=O)N2Cc2cccnc2)cc1 (stereo not drawn)	11%	7%	.	-11%	-14%	-14%	3%	-4.0%
CC(=O)N1N=C(c2ccc(Cl)cc2)OC1(C)C	5%	0%	-6%	0%	0%	14%	0%	-3.4%
CCOc1ccc(-c2noc(CSc3nnc(Cc4ccccc4)n3-c3ccc(F)cc3)n2)cc1	.	?	-5%	.	3%	-10%[46.1 µM]	.	-11%
O=C(Cc1cccc(F)c1)Nc1ccc2c(c1)CCC2	0%	0%	39%[activator]	5%	.	23%[46.1 µM]	-22%	.
CCOC(=O)c1ccc(NC(=O)NCc2ccc(OC)cc2)cc1	1%	?	-13%	7%	.	-11%	.	.
COc1ccc(/C=C2/CCc3ccccc3C2=O)cc1CN1CCOCC1	2%	?	-10%	-8%	-20%	?	-9%	-9.4%
COCCCn1c(N)c(C(=O)OC(C)COC)c2nc3ccccc3nc21 (stereo not drawn)	-4%	0%	-12%	-13%	?	-8%	-2%	-22%
CC(C)CN(C(=O)COc1ccc(-c2nnco2)cc1)C1CCS(=O)(=O)C1 (stereo not drawn)	-1%	0%	-7%	4%	.	8%	7%	.
CC(=O)Cn1c(=O)oc2ccccc21	0%	11%	-1%	-7%	.	3%[14.2 µM]	2%	.
CCOc1ccc(CNC(=O)CCCn2c(=O)c3cccn3c3cccnc32)cc1	.	4%[46.1 µM]	-10%	.	10%	.	.	-0.8%
O=C1c2cccc3c([N+](=O)[O-])ccc(c23)C(=O)N1c1ccccn1	-34%	?	?	28µM*	-4%	10µM*	-52%	-11%
CC1Cc2nc(SCC(=O)NCc3ccco3)n(Cc3ccccc3)c(=O)c2S1 (stereo not drawn)	6%	3%	24%	1%	-6%	18%	-86%	-4.8%
CN(CC(=O)Nc1ccc(S(=O)(=O)N2CCCC2)cc1)Cc1ccc(Cl)cc1	-5%	?	-11%	-2%	-1%	?	-19%	-0.1%
O=C(c1ccc(Cl)cc1)n1c(NCc2ccccc2)n[nH]c1=S	1%	10%	15%	5%	.	-19%	5%	.
CCn1nc2cc(C(=O)NCCc3cccs3)ccc2c1OC	18%	.	42%[activator]	6%	-3%	.	-13%	-8.7%
CCOC(=O)C1C(c2ccc3c(c2)OCO3)NC(=O)NC1(O)C(F)(F)F (stereo not drawn)	-3%	4%	-20%	-17%	3%	-3%	6%	0.6%
CCCCNc1c(N)n(CCC)c(=O)[nH]c1=O	-4%	.	-3%	27%	.	3%[46.1 µM]	.	.
O=C(CN1CCOCC1)OCCCC1CCCCC1	1%	7%	26%	9%	-1%	14%	-4%	3.0%
CCN(CC)c1ccc2c(C)c(Cl)c(=O)oc2c1	0%	?	2%	-2%	.	?	5%	.
O=C(NCc1ccc2c(c1)OCO2)C1Cc2ccccc2CN1C(=O)c1ccco1 (stereo not drawn)	1%	-3%	2%	-15%	.	-17%[46.1 µM]	.	.
CCCCC(=O)Nc1nnc(CCOC)s1	0%	.	17%	-2%	.	.	5%	.
Cn1c(SCC(=O)Nc2nccs2)nnc1-c1ccncc1	4%	25%	7%	14%	-8%	24%[46.1 µM]	1%	2.1%
CCOC(=O)c1c(C)n(C)c2ccc(OC)c(NC(=O)CN3CCCCC3)c12	1%	-3%	-11%	-1%	-11%	-15%&-15%	7%	2.4%
Cc1ccc(-c2nc3[nH]c(=O)cc(NC(=O)C(C)C)n3n2)cc1	1%	.	3%	-3%	.	.	-2%	.
C/C(=N\NC(=O)COc1cc(C)cc(C)c1)c1cccc(NC(=O)C2CCC2)c1	-9%	.	?	7%	.	.	-6%	.
Cc1ccc(-n2ncc3c(N(C)Cc4ccccc4)ncnc32)cc1	.	1%[46.1 µM]	-34%	.	-4%	.	.	0.5%
CS(=O)(=O)c1ncc(N(Cc2ccccc2)Cc2ccco2)c(C(=O)Nc2cccc(C(F)(F)F)c2)n1	.	0%[46.1 µM]	-21%	.	-25%	-25%[46.1 µM]	.	-4.1%
COc1ccc(S(=O)(=O)N(CC(=O)Nc2ccccc2Cl)Cc2ccccc2)cc1	.	9%[46.1 µM]	-1%	.	8%	.	.	-5.7%
CCCCn1c(=O)c(C(=O)Nc2cnccn2)c(O)c2ccccc21	5%	20%	-4%	-14%	13%	19%	-33%	-3.8%
Cc1ccc(/C=C/C(=O)N2CCc3ccccc3C2)cc1	-1%	6%	-4%	7%	-5%	13%[46.1 µM]	-55%	-3.2%
CSc1sc(C(=O)NCC2CC2)cc1S(=O)(=O)C(C)C	2%	?	-16%	-3%	.	-1%[46.1 µM]	-2%	.
CN(C)CCN(Cc1ccccc1)c1ccnc(N(C)C)c1C#N	-2%	-7%	-14%	0%	0%	-13%[46.1 µM]	0%	-2.5%
COc1ccc(C2=NN(S(C)(=O)=O)C(c3cccs3)C2)cc1OC (stereo not drawn)	0%	30%[46.1 µM]	8%	-1%	.	20%[46.1 µM]	-1%	.
O=S1(=O)NC(=NC2CCCCCC2)c2ccccc21	-2%	11%	40%[activator]	5%	7%	1%	-3%	1.3%
CN(Cc1ccc(Cl)cc1Cl)C(=O)c1cc(=O)c2ccccc2o1	-8%	-2%	0%	27%	.	1%[46.1 µM]	-23%	.
COc1cc(NC(=O)CSc2nnc3n2C(C)(C)Cc2ccccc2-3)cc(OC)c1	6%	-7%	?	2%	-4%	?	-3%	-2.5%
CCOc1cc(S(=O)(=O)NC2CCCC2)ccc1Cl	2%	-1%	30%[activator]	-6%	-2%	?	-124%	-8.7%
c1ccc2c(c1)OCCOCCOCCO2	1%	-5%	0%	-1%	.	-2%[46.1 µM]	.	.
C#CC(CC)(CC)NC(=S)Nc1ccc(S(N)(=O)=O)cc1	-24%	-4%	27%	-3%	-16%	24%	4%	-5.0%
COc1ccc(NC(=O)CCCC2=NS(=O)(=O)c3ccccc3N2)cc1	13%	23%	-6%	1%	0%	3%	-7%	3.0%
O=C(c1ccco1)N(Cc1cccs1)C1CCS(=O)(=O)C1 (stereo not drawn)	1%	0%	-4%	2%	2%	-4%[46.1 µM]	2%	2.8%
O=C(OCN1C(=O)c2ccccc2C1=O)C1CCCCC1	-2%	12%	14%	-9%	-26%	2%	-10%	-1.4%
Cc1cccc(C(=O)Nc2cccc(-c3cnc4ccccc4n3)c2)c1	1%	?	52%[activator]	17%	?	-24%	4%	-6.0%
COc1ccc(-n2ccn(CC(=O)Nc3ccc(OC)cc3OC)c(=O)c2=O)cc1	-2%	.	-11%	15%	.	.	0%	.
COc1ccc(NC(=O)Nc2ccc3nccnc3c2)cc1	0%	-15%	-29%	6%	3%	?	-6%	-2.0%
NC(=O)c1nsc(C(=O)N(c2cccc(F)c2)C(C(=O)NC2CCCC2)c2ccc(O)cc2)c1N (stereo not drawn)	7%	?	-6%	-9%	.	-21%[46.1 µM]	8%	.
CC(=O)N1N=C(c2ccc(C)c([N+](=O)[O-])c2)OC1(C)C	-2%	.	-3%	4%	.	.	-5%	.
COc1ccc(Cl)cc1NC(=S)NCc1cccs1	-1%	15%	67%[activator]	-4%	.	-11%[14.2 µM]	-1%	.
O=C1CC(c2ccc(F)cc2)Sc2nc(C34CC5CC(CC(C5)C3)C4)nn21 (stereo not drawn)	9%	-2%	-13%	20%	-4%	7%	3%	-11%
COc1ccc(C2CC(=O)C(C=NCCN3CCN(C(=S)Nc4ccccc4)CC3)=C(O)C2)cc1OC (stereo not drawn)	0%	14%	?	-12%	.	21%[46.1 µM]	.	.
O=C(NC1CCCC1)C(c1ccco1)N(Cc1ccccc1)C(=O)c1csnn1 (stereo not drawn)	5%	5%	-9%	?	-2%	21%&21%	-1%	2.0%
CC(C)Oc1ccc(/C(O)=C2/C(=O)C(=O)N(CCN(C)C)C2c2cccs2)cc1 (stereo not drawn)	-1%	-2%	12%	-2%	0%	-2%	-4%	-5.0%
O=C(CCNS(=O)(=O)c1ccc(Br)s1)NCc1ccccc1Cl	-6%	?	14%	9%	.	?	.	.
Cc1ccc(-c2ccc(CCC(=O)O)n2CC2CCCO2)cc1 (stereo not drawn)	-1%	0%	-10%	-12%	8%	-2%	27%	-6.3%
